ALR H2O2 inh – human ALR oxidase inhibition via reduced H2O2; P55789; purified ALR, DTT oxidation, H2O2 HRP-luminol luminescence; inhibition, % (concentration not given with the values); 290,000 tested, 3.8% active; AID 485317;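 active = mean and each replicate at 75% or more; inconclusive = only one of the two met; inactive = neither met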;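 note: stock transfer was 7.5 nL into about 7.5 µL; 0% = neutral wells and 100% = wells with inactivated enzyme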
rRNA inh HTS – inhibitors of bacterial rRNA selective over humanized ribosomes; E. coli WT GFP vs humanized-ribosome RFP mutants, fluorescence, 24 h; active compounds read low; DMSO median 0, no signal -100; GFP signal change (wild-type ribosome), % (concentration not given with the values); 350,000 tested, 1.6% active; AID 720706;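 active = significant combined selectivity score with lowered wild-type GFP, culture density cut under 30%, mutant RFP and density less affected; inactive = any of these conditions unmet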; note: one replicate is shown; some compounds called inactive have numbers as strong as hits
E coli growth – inhibitors of Escherichia coli growth; OD600, 23 h; active compounds read low; 330,000 tested, 0.21% active; AID 1053175; OD600 absorbance (test concentration not listed);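 active = OD600 absorbance below the run mean of sample wells minus 3.6 SD, in any replicate, cut at about 0.56 in these data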;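 note: stock transfer was 300 nL into about 60 µL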
FGF22 binding – FGF22 (human) thermal shift binding; Q9HCT0; recombinant FGF22 thermal shift, SYPRO orange fluorescence; percent of sucrose octasulfate shift, DMSO zero; calls only at 9.99 µM; 340,000 tested, 1.5% active;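 active = melting point raised past a set limit in the mean and every replicate; inconclusive = no clear call; three in four hits are not shown here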
Vif TR-FRET – inhibitors of Vif binding to APOBEC3G peptide, primary screen, biochemical, TR-FRET, GST-Vif 1-94, biotin-A3G peptide, dose response retest (AID 1117319). TR-FRET GST-Vif / biotin-A3G peptide binding; higher % means a stronger effect; test concentration not given here; strong numbers were not always called active. inhibition, %, or IC50 in µM where a hit was titrated. 260,000 tested, 0.57% active;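 active = above the screen mean plus three standard deviations and confirmed in dose response; inconclusive = results disagree or hit not tested in dose response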;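 note: Vif residues 1-94 fused to GST binding biotinylated APOBEC3G peptide 110-148; 0% = full assay without inhibitor and 100% = GST in place of GST-Vif; retest series ran down from 100 µM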
HNF4A DNA FP – change in binding of human HNF4 alpha to DNA. activity change, % at 10 µM. 360,000 tested, 0.3% active. HNF4a-FITC DNA binding, fluorescence polarization, 1 h; in the data active = activity change above about 30%, passing the limit was not always enough;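 note: controls were the assay level and a saturating level of protein; the project sought stronger binding though the title names inhibitors; some compounds called inactive have numbers as strong as hits; positive values seem to mean higher polarization but the record does not say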
Target sequence (P41235 whole entry, looked up): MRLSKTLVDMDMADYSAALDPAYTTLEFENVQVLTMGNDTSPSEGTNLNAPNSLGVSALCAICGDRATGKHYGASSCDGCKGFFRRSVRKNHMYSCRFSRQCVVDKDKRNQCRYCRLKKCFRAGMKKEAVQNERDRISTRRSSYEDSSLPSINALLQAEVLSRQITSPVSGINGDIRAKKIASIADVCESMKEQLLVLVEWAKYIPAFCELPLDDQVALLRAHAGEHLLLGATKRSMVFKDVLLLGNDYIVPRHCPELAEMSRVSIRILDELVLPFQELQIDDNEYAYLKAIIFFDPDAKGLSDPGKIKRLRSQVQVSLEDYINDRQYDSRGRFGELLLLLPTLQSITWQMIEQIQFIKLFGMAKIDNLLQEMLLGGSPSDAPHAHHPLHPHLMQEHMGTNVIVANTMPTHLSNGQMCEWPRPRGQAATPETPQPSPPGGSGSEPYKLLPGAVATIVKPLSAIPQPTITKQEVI
AF4-AF9 inh – inhibitors of human MLL-AF4/AF9 interaction. AlphaScreen, biotin-AF4 peptide binding to FLAG-AF9. P42568. AID 651704. 350,000 tested, 0.47% active. inhibition, % at 10 µM;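 active = every replicate reaching a set inhibition limit, whatever the replicate mean, cut at about 25% in these data; inconclusive = mean inhibition reaches that limit but some replicates miss it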;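 note: 0% = plate neutral control median and 100% = total signal loss; the record names both 10 and 1 µM as test concentration; the first replicate is given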
Target sequence (P42568 whole entry, looked up): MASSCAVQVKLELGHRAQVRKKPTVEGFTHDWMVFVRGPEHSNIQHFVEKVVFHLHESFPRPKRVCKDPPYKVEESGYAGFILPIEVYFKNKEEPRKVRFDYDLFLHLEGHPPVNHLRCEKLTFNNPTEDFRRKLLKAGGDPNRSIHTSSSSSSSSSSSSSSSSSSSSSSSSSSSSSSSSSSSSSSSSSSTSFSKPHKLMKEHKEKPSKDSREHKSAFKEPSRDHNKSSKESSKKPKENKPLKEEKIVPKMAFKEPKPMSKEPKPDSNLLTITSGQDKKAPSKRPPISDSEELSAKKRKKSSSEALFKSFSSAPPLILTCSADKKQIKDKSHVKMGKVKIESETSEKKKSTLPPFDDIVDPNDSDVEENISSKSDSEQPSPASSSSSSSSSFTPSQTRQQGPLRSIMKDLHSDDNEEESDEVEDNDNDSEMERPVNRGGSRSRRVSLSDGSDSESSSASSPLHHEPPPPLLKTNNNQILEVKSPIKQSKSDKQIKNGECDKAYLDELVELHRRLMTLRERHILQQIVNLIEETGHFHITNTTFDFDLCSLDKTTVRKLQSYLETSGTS
rRNA inh HTS OD600 – recorded beside rRNA inh HTS, whose call it bears; OD600 change, %; measured here: OD600 growth;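 optical density of the mix in the first replicate; 0 = DMSO median and -100 = no signal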
rRNA inh HTS RFP – further read-out of rRNA inh HTS, marked with its call; RFP signal change, %; measured here: RFP humanized mutant strains;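 first replicate; 0 = DMSO median and -100 = no signal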
An asterisk follows results filed as active; i = inactive; ? = inconclusive; nt = not tested or not shown; & = joins results of further samples. A portion of the library; the hit share may differ from the screen's.

SMILES	ALR H2O2 inh	rRNA inh HTS	rRNA inh HTS OD600	rRNA inh HTS RFP	E coli growth	FGF22 binding	Vif TR-FRET	HNF4A DNA FP	AF4-AF9 inh
COc1ccccc1OC(C)C(=O)Nc1ccccc1C(=O)NCc1cccnc1 (centres undefined)	3.5	-6.6	0.4	-4.4	0.7	i	11.9%	-3.0	-4.6
CCCCCCCC/C=C\CCCCCCCC(=O)NCCc1ccc(O)c(O)c1	36.1	nt	nt	nt	nt	i	nt	-0.5	5.2
CCOC(=O)Nc1cccc(OCC(=O)Nc2ccc(OC)cc2OC)c1	nt	nt	nt	nt	0.693	nt	3.0%	0.4	nt
COc1ccc(CN(C)C[C@@H]2Oc3ccc(NS(=O)(=O)c4ccccc4)cc3C(=O)N([C@H](C)CO)C[C@H]2C)cc1	nt	2.2	0.1	3.3	nt	i	nt	nt	-0.1
COC(=O)CCC(=O)Nc1nnc(C(F)(F)F)s1	-3.3	nt	nt	nt	0.682	nt	5.7%	5.4	nt
O=C(NC1CCCCCCC1)c1cccc(S(=O)(=O)N2CCOCC2)c1	nt	-0.6	9.6	0.0	0.67	i	1.9%	1.7	-0.6
COc1ccc(CN(C)C[C@@H]2Oc3c(NC(=O)CCCCCC(=O)Nc4ccccc4N)cccc3C(=O)N([C@@H](C)CO)C[C@H]2C)cc1	nt	-4.9	-15.6	0.3	nt	i	nt	nt	0.2
O=C(Cn1cnc2ccccc2c1=O)Nc1ccccc1N1CCOCC1	-1.8	nt	nt	nt	0.724	nt	4.1%	2.3	-0.5
CN1c2ccc(-c3cccc(C#N)c3)cc2[C@H]2[C@H](CCN2S(=O)(=O)c2ccccc2)[C@H]1CO	nt	1.3	-3.1	-2.5	nt	i	nt	nt	-0.2
COc1ccc(C(=O)NCCc2cnc[nH]2)cc1OC	nt	12.4	16.1	0.6	0.601	i	nt	0.8	2.8
Cc1ccc(OCC(=O)OC(C)CN(C)Cc2ccccc2)cc1 (centres undefined)	-3.9	nt	nt	nt	0.67	nt	1.9%	-0.7	nt
O=C(C[n+]1cccc(/C=N/O)c1)N(Cc1ccccc1)Cc1ccccc1	-2.1	10.4	-0.2	-0.1	nt	i	1.0%	1.2	5.4
CCCC1CCC(c2ccc(/C(N)=N/O)cc2)CC1 (centres undefined)	93.5*	-5.9	13.9	2.5	0.71	i	17.8%	-1.4	-0.3
O=C(CSc1nnc(-c2ccc(F)cc2)o1)Nc1ccccc1N1CCOCC1	-17.6	nt	nt	nt	0.737	nt	-5.5%	-0.1	nt
Nc1nc(Nc2cccc(F)c2)nc(NCCO)c1[N+](=O)[O-]	-16.9	0.9	-1.5	-1.7	0.63	nt	-7.0%	-4.1	2.8
C[C@@H]1CN([C@@H](C)CO)C(=O)c2cc(-c3cccc(F)c3)cnc2O[C@@H]1CN(C)C(=O)C1CCOCC1	nt	5.3	10.3	-1.6	nt	i	nt	nt	-6.2
O=C1COc2ccc(C(=O)COC(=O)Cc3ccccc3F)cc2N1	-2.6	-14.6	3.4	-1.8	0.645	i	-7.3%	0.6	0.2
CN1C(=O)c2ccccc2C(C(=O)O)C1c1cn(C)c2ccccc12 (centres undefined)	4.0	nt	nt	nt	0.757	nt	-2.5%	0.2	nt
Cc1ccc(CS(=O)(=O)CC(C)(O)c2ccc(Cl)cc2)cc1 (centres undefined)	-2.8	-5.9	-5.5	2.2	0.596	i	-14.6%	2.2	-1.4
C=CCOC(=O)C1=C(C)Nc2nnnn2C1c1cc(OC)ccc1OC (centres undefined)	5.3	nt	nt	nt	0.748	nt	21.6%	-3.2	nt
O=C(CSc1ccccc1F)Nc1ccc(N2CCOCC2)cc1	40.5	-7.4	-4.8	-3.5	0.675	i	9.4%	-0.8	0.6
O=C(C(O)c1ccccc1)N1CCN(S(=O)(=O)c2ccc(OC(F)(F)F)cc2)CC1 (centres undefined)	nt	12.1	7.5	2.0	nt	i	nt	4.8	0.5
O=c1[nH]c(SCc2ccc(Cl)cc2)nc2ccccc12	-10.7	4.0	0.3	1.2	0.68	i	-2.0%	-3.7	-0.9
NNC(=O)c1cc(-c2cccs2)nc2ccccc12	-4.7	5.7	3.8	-3.1	0.704	i	-11.0%	-0.8	-18.5
Cc1ccc(/C(O)=C2\C(=O)C(=O)N(CC(C)O)C2c2ccccn2)cc1 (centres undefined)	-10.1	14.7	2.8	0.7	0.689	i	-4.9%	-3.3	0.7

The list goes on:
SMILES	ALR H2O2 inh	rRNA inh HTS	rRNA inh HTS OD600	rRNA inh HTS RFP	E coli growth	FGF22 binding	Vif TR-FRET	HNF4A DNA FP	AF4-AF9 inh
CCC/C=N/NC(=O)c1ccc(F)cc1	-5.8	13.8	3.3	-0.3	nt	nt	-10.6%	0.5	-0.5
COc1cccc(COC(=O)CSCC(=O)Nc2cccc(C)c2)c1OC	-27.8	-3.3	-12.6	-3.0	0.692	i	2.4%	1.9	-1.5
Cc1nc(N2CCN(c3ccccn3)CC2)c2c(C)c(C(=O)Nc3ccccc3F)sc2n1	nt	9.3	6.0	1.4	0.712	i	-27.6%	0.9	-9.2
CCOc1ccc(-n2c(SCC(=O)NC3CCS(=O)(=O)C3)nnc2-c2cccnc2)cc1 (centres undefined)	nt	-8.2	-6.8	0.6	0.643	i	0.6%	-3.3	3.1
COc1cc(OC)cc(C(=O)OCC(=O)Nc2sccc2C(N)=O)c1	-15.9	-30.9	-25.1	-4.4	0.722	i	-2.5%	-2.1	-1.7
COc1cccc(NC(=O)Nc2cc(C)ccc2F)c1	-14.7	0.1	6.1	-5.4	0.656	nt	16.0%	-2.0	nt
CC(C)NC(=O)c1ccc2c(c1)N(CC(=O)N1CCCC1)C(=O)C(C)(C)O2	-0.6	-0.5	3.2	0.9	nt	i	-0.8%	-3.5	-0.7
O=C(OCC(=O)N1CCN(S(=O)(=O)c2ccc(Cl)cc2)CC1)C1CC1	nt	2.1	2.4	-2.3	0.672	i	nt	-1.9	0.8
N#CC1=C(N)N2C(=C(C#N)C13CCN(Cc1ccccc1)CC3)Nc1ccccc12	-40.2	nt	nt	nt	0.685	nt	0.1%	0.3	nt
COc1ccc(NS(=O)(=O)c2ccc(O)c(NC(=O)c3ccc(S(=O)(=O)N4CCCC4)cc3)c2)cc1	-21.3	-18.3	-3.3	12.6	0.68	i	-19.0%	-1.3	3.8
COc1ccc(CNC(=O)CCCn2c(=O)c3cccn3c3cccnc32)cc1	nt	-1.2	6.2	-4.1	nt	i	-37.1%	0.2	-3.0
CCOC(=O)c1c(O)c2cccc3c2n(c1=O)CC3	2.9	5.6	2.5	-0.8	0.669	i	nt	0.9	nt
O=C(Cc1ccc(F)cc1)N1CCC(N2CCC(C(=O)N3CCOCC3)CC2)CC1	0.4	15.3	4.0	0.9	0.667	i	0.1%	0.4	-1.1
CCOc1ccc(S(=O)(=O)N2CCCCC2)cc1NC(=O)Cc1ccccc1	nt	3.5	5.0	-0.6	0.708	i	nt	-3.8	0.8
CCN(CC)CCOC(=O)c1ccc(Cl)cc1	-4.5	nt	nt	nt	0.736	nt	-1.2%	-1.1	nt
Cc1nc2cc3ccccc3cc2c(=O)[nH]1	-20.4	-15.9	-15.6	8.1	0.669	i	4.7%	0.5	0.2
O=c1[nH]c(NCCO)nnc1Cc1ccccc1	nt	0.4	10.0	-0.7	0.674	i	nt	8.4	-1.2
CC(=O)c1ccc(N2CCN(C(=O)Nc3ccc(C)cc3)CC2)cc1	-23.5	8.9	25.4	-2.2	0.635	i	-2.2%	1.1	1.2
CCOC(=O)C1Cn2c(nc3c(c2=O)C2(CCCC2)Cc2ccccc2-3)S1 (centres undefined)	-16.2	nt	nt	nt	0.721	nt	3.8%	0.1	nt
CC(C)=CCC/C(C)=C/CC/C(C)=N/O	-4.4	nt	nt	nt	nt	nt	18.5%	0.9	0.2
O=C(CN1CCN(c2ccccc2O)CC1)Nc1ccccc1C(=O)NCCc1ccccc1	72.0	-4.3	-7.9	1.4	0.725	i	-0.7%	-4.0	?
O=c1c2[nH]c3ccc(Cl)cc3c2ncn1Cc1ccccn1	nt	nt	nt	nt	0.742	nt	-5.4%	10.4	nt
COc1ccc(CN(C)C[C@@H]2Oc3ccc(NC(=O)C4CCCCC4)cc3C(=O)N([C@@H](C)CO)C[C@@H]2C)cc1	nt	-0.2	-0.7	2.2	nt	i	nt	nt	-2.1
O=C(NC1CCCCCCC1)c1ccc(CNc2c(N3CCOCC3)c(=O)c2=O)cc1	25.6	5.8	5.6	0.6	0.734	i	2.7%	-2.5	39.5*
CCn1c(=O)c(-c2ccccc2)c(O)c2ccccc21	3.6	nt	nt	nt	0.658	nt	-0.3%	3.1	nt

Next section
SMILES	ALR H2O2 inh	rRNA inh HTS	rRNA inh HTS OD600	rRNA inh HTS RFP	E coli growth	FGF22 binding	Vif TR-FRET	HNF4A DNA FP	AF4-AF9 inh
O=C(CNC(=O)c1cccs1)NCC(=O)OCc1ccc(F)cc1	-9.5	2.6	5.9	0.8	0.709	i	?	-0.7	-7.3
CN(C)CC(O)COc1ccc(C(C)(C)c2ccc(OCC(O)CN(C)C)cc2)cc1 (centres undefined)	-9.6	nt	nt	nt	0.717	nt	-11.3%	6.9	nt
CCCC(=O)NCc1cc(-c2nn(C)c(=O)c3ccccc23)ccc1C	-2.3	nt	nt	nt	0.71	nt	-6.1%	-1.9	nt
COc1ccc2c3c(n(C)c2c1)[C@H](CO)N(C(=O)c1ccccn1)CC31CCN(C(=O)Cc2ccccc2)CC1	nt	-5.1	-9.8	3.9	nt	i	nt	nt	0.9
C[C@@H]1CCCCO[C@H](CN(C)CC2CC2)[C@@H](C)CN([C@H](C)CO)C(=O)c2cc(NC(=O)Nc3ccc4c(c3)OCO4)ccc2O1	nt	4.6	7.7	-1.9	nt	i	nt	nt	25.5*
CC(=O)c1cccc(NC(=O)COC(=O)COc2c(Cl)cc(Cl)c3ccc(C)nc23)c1	-2.3	2.3	-14.0	2.8	0.692	i	nt	1.9	-1.1
COc1ccc(N2CCN(C(=O)CCc3nc(-c4ccc(C)cc4)no3)CC2)cc1	nt	nt	nt	nt	0.725	nt	-1.4%&20.9%	4.8	nt
COc1cc2c(cc1NC(=O)COC(=O)/C=C/c1ccc([N+](=O)[O-])cc1)oc1ccccc12	-28.4	17.7	17.3	7.1	0.714	nt	0.1%	2.3	3.3
COc1ccc(-n2c(=S)[nH]c3cc(C(=O)NCCCN4CCCC4=O)ccc3c2=O)c(OC)c1	nt	nt	nt	nt	0.724	nt	?	1.7	nt
O=C1NC[C@@H](Cc2cccc3ccccc23)N(CC2CCCCC2)C1=O	-31.5	-54.3	-78.7	-27.1	nt	i	5.4%	-1.7	-5.4
Cc1cccc(NC(=O)N(C)Cc2cccs2)c1	3.4	nt	nt	nt	0.727	nt	3.0%	3.2	nt
COc1cccc(S(=O)(=O)Nc2ccc3c(c2)C(=O)N(C)C[C@H](OC)[C@H](C)CN[C@H](C)CO3)c1	nt	2.1	1.1	-0.5	nt	i	nt	nt	-2.0
COc1ccc2cc(CCN3C(=O)c4ccccc4C3=O)c(=O)[nH]c2c1	-1.9	6.9	7.4	-1.3	0.715	i	-10.1%	-0.2	-4.6
CCc1nc2c(c(=O)c3ccccc3n2C)c(=O)n1-c1ccc(F)cc1	-1.5	nt	nt	nt	0.688	nt	-7.6%	-1.5	nt
Cc1ccc(C(=O)Oc2ccc3ccc(=O)oc3c2)cc1	-7.6	3.1	3.5	-4.3	0.723	i	nt	-0.9	-0.5
CNC(=S)N1CCN(c2cccc(OC)c2)CC1	99.0*	nt	nt	nt	0.664	nt	30.4%	0.8	nt
